VDR inhibitor: blocks the human vitamin D receptor | P11473 | VDR-SRC2-3 peptide fluorescence polarization, 2 h | Potency, µM, for the others: max response, negative = inhibition, hits mostly inhibitors | actives 0.93% (n = 400,000) | AID 504847; active = well fitted inhibition curve with a large enough effect; inconclusive = small, poorly fitted or top-dose-only effect, or another doubt; inactive = no such curve, though single readings can be large or run the other way; also: series mostly up to about 120 µM
Target sequence (P11473 whole entry, looked up): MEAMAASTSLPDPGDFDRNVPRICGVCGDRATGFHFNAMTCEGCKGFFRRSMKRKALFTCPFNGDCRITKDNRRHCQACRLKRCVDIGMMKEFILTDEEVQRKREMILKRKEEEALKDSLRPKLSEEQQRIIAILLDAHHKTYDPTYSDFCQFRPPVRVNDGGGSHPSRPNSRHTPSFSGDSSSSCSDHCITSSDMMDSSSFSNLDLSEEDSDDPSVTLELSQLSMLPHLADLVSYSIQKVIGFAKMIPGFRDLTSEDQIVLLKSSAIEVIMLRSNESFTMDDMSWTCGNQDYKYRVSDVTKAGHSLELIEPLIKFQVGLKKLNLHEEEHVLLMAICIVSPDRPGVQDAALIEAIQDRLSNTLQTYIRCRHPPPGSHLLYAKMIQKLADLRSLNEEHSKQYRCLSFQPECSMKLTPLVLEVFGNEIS
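Inhibition of the VDR/SRC2-3 peptide interaction is quantified by fluorescence polarization. Compounds (23 nl, pintool) incubate with the reagents for 2 hours at ambient room temperature.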
Numbers without * were called inactive; u = inconclusive; & = joins results of further samples. % is scaled to controls: 0 for no effect and ±100 for the full control effect; potency is read from the fitted curve at half-maximal effect.

SMILES | VDR inhibitor
CCOC(=O)c1ccc(NC(=O)CC2Nc3cccc4cccc(c34)NC2=O)cc1 (stereo not drawn) | -8.5%
COc1ccc(-c2noc(CCC(=O)N3CCN(c4ccccc4F)CC3)n2)cc1 | -20.6%
Fc1ccc(N2CCN(Cc3cn[nH]c3-c3ccccc3)CC2)cc1 | -1.5%
CC(=O)N(c1ccc(C)cc1)c1nc(C)cc(C)c1C#N | 1.8%
CCOC(=O)c1cc2c(ccn2C)n1CC(=O)N1CCN(c2ccc(F)cc2)CC1 | 11.6%
S=C(NCc1ccco1)N1CCN(Cc2ccc(Cl)cc2Cl)CC1 | -17.8%
CCOc1ccc(CN2C(=O)c3ccccc3Sc3ccc(C(=O)NCCc4ccccc4)cc32)cc1 | -3.4%
CCOc1ccc(CNC(=O)c2ccc(NC(=O)N3CCCCc4ccccc43)cc2)cc1OC | 6.7%
CCN(CC)Cc1cc(CCNC(=O)c2ccc(Cl)cc2)ccc1O | 11.2%
Cc1ccc(-c2cc(C(=O)Oc3ccccc3Cl)no2)cc1C | -7.8%
Cc1cc(N/N=C/c2cccc(F)c2)nc(NCc2ccccc2)n1 | 15.1%
O=C(NCC1CCCN(C2Cc3ccccc3C2)C1)c1cccs1 (stereo not drawn) | -5.7%
CC12CCCC[C@@H]1CCC1C2CCC2(C)C1CC[C@@]2(O)CNCCO (stereo partly drawn) | -5.0%
CCOC(=O)N=Nc1c(O)n(CC(=O)OC)c2ccccc12 | 12.4%
C=CCn1c(=N)c(C(=O)NCCCOC)cc2c(=O)n3cccc(C)c3nc21 | -2.6%
COC(=O)c1ccc2c(c1)N(C)CCS2 | -23.2%
Cc1cc(NC(=O)CCC(=O)N(Cc2ccco2)C(C(=O)NCC2CCCO2)c2ccncc2)no1 (stereo not drawn) | -19.9%
O=C(CN(C(=O)CNS(=O)(=O)c1ccc(F)cc1)c1cccc(F)c1)NCC1CCCO1 (stereo not drawn) | 4.3%
COC(=O)Cc1csc(NC(=O)CSc2nnc3ccccn23)n1 | u
CCOC(=O)c1coc(C(=O)OCC)c1C(=O)OCC | 6.8%
Cc1ccc(C(=O)N/C(=C\c2ccccc2)C(=O)OCc2ccccc2)cc1 | -13.6%
O=C(CN(Cc1ccccc1Cl)C(=O)c1csnn1)NC1CCCC1 | -5.8%
Cc1ccc(CNC(=O)CCC(=O)N2CC(C)Oc3ccc(Cl)cc32)cc1 (stereo not drawn) | -16.5%
O=C(Oc1cncc(Cl)c1)c1sccc1Cl | 9.5%
CCC1Sc2ccccc2N(CC(=O)NCc2ccccc2OC)C1=O (stereo not drawn) | -7.0%
C=CCn1c(-c2ccccc2)cc(SC)c(C#N)c1=O | 6.5%
O=C1CSC(=S)N1/N=C/c1c(F)cccc1F | -1.5%
COc1ccc(OC)c(CCNC(=O)C(C)n2nc(C)c3c(C)n(-c4ccc(C)cc4)nc3c2=O)c1 (stereo not drawn) | 2.6%&6.6%
O=C(CNC(=O)C1CCCCC1)OCc1ccccc1 | -15.0%
Cc1csc(=NC(=O)c2ccccc2)n1C | 3.9%
CC(O)(c1ccccc1)C(c1ccccc1)C1CCCCN1 (stereo not drawn) | -5.2%
N#Cc1ccccc1NC(=O)Nc1ccccc1 | 0.0%
O=C(NCc1ccco1)c1ccc(C(F)(F)F)cc1 | -5.2%
O=C(NC1CCCCC1)C(c1ccc2ncccc2c1)N(Cc1ccc(F)cc1)C(=O)c1ccc2c(c1)OCCO2 (stereo not drawn) | 3.0%
O=C(O)c1ccccc1S(=O)(=O)NCC(O)COc1ccc(Br)cc1 (stereo not drawn) | 19.1%
O=C(CN1CCCN(Cc2ccc(F)cc2Cl)C1=O)NC1CCCCCC1 | 9.6%
CCOc1cc(C(=O)N2CC(=O)Nc3ccc(C)cc3C2c2ccccc2)cc(OCC)c1OCC (stereo not drawn) | -9.2%
CC1=CC(C)(C)NC(=S)N1c1cccc(C)c1 | -16.2%&-0.6%
COc1ccc(C(=O)NCC(=O)OCC(=O)N2CCc3ccccc32)cc1 | -15.0%
O=C(O)CCCn1cc(NC(=O)c2ccc(F)cc2)cn1 | 14.0%
CCOc1ccc(-c2cc(CCCC(=O)NCc3ccc(C)cc3)no2)cc1 | -15.5%
COc1ccccc1C(=O)C1CCCN(C(=O)c2cccc(-n3cccn3)c2)C1 (stereo not drawn) | 2.9%
O=C(OCc1cc(=O)oc2cc(O)ccc12)c1cc(S(=O)(=O)N2CCOCC2)ccc1F | -5.0%
CC(C)CCN1CCN(Cc2cccc(C(F)(F)F)c2)CC1CCO (stereo not drawn) | -17.9%
Cc1ccc(CN(C(=O)C(F)(F)F)C(C(=O)NC2CCCCC2)c2ccco2)cc1 (stereo not drawn) | -11.2%
CC(CC(=O)Nc1ccc(F)cc1F)S(=O)(=O)c1ccc2c(c1)NC(=O)CO2 (stereo not drawn) | -12.4%
O=S(=O)(NCCCN1CCOCC1)c1ccc2c(c1)OCCO2 | 4.0%
Cc1ccc(CC(=O)c2ccc(Cl)cc2)cc1 | 13.3%
CCOc1c(Br)ccc2c1sc1nc[nH]c(=O)c12 | 1.0%
CC(=O)c1ccc(NC(=O)c2ccc(-n3cnnc3)cc2)cc1 | 4.0%

Additional compounds.
SMILES | VDR inhibitor
Cc1cc2cc(OCC(=O)O)ccc2n1C | 0.0%
Nc1c(C(=O)NCCN2CCOCC2)c2nc3ccccc3nc2n1CCc1ccccc1F | 17.0%
Cc1ccc(C(=O)OCC(=O)N(C)c2c(N)n(Cc3ccccc3)c(=O)[nH]c2=O)s1 | 2.9%
COc1ccc(NCC(=O)N2CCCC2)cc1Cl | -13.9%
O=C(CNC(=O)c1ccccc1)NCCCSc1ccccc1 | 8.9%
CC1C(=O)CCC2[C@]1(C)CCC1[C@]2(C)CC[C@@]2(C)C3CC(C)(C)CC[C@]3(C)CC[C@@]12C (stereo partly drawn) | 1.0%
Cc1cc(CNC(=O)C2CCC(=O)N(Cc3cccc(C(F)(F)F)c3)C2)no1 (stereo not drawn) | -8.1%
CCOC(=O)C1CCN(C(=O)c2ccc3c(c2)NC(=O)/C(=C\c2ccc(C)cc2)S3)CC1 | -9.4%
Cc1ccc(N2CCN(C(=S)Nc3ccccc3)CC2)cc1 | -3.3%
Cc1cccc(NC(=O)C(C)n2cc([N+](=O)[O-])cn2)n1 (stereo not drawn) | 10.4%
CC(=O)c1cccc(NC(=O)c2cc(-c3ccc(Cl)s3)nc3ccccc23)c1 | -0.5%
CCCCc1ccc(S(=O)(=O)NC2CCS(=O)(=O)C2)cc1 (stereo not drawn) | 6.9%
CC(=O)c1cccc(OCC(O)CNCCOc2ccc(C)cc2)c1 (stereo not drawn) | -18.2%
O=C(CSc1nccn1-c1ccccc1)NCc1ccc2c(c1)OCO2 | 27.2%
Cc1ccc(Cl)cc1NC(=O)Cn1c(=O)n(Cc2ccc(C(=O)NCc3ccc4c(c3)OCO4)cc2)c(=O)c2ccccc21 | -2.2%
CCOC(=O)C1CCCN(C(=O)c2cccc(S(=O)(=O)N(C)c3ccc(C)cc3)c2)C1 (stereo not drawn) | -10.3%
COC(/C(=N/O)c1ccc(Cl)cc1)c1ccccc1 (stereo not drawn) | -16.5%
C(=N\Nc1nc(Nc2ccccc2)nc(N2CCOCC2)n1)/c1c[nH]c2ccccc12 | -4.2%
CCN(CC)CCC(c1cc(OC)c(OC)c(OC)c1)c1c(OC)cc(OC)c2c(C)cc(=O)oc12 (stereo not drawn) | -8.3%&4.4%
O=C(CSc1nnc(-c2ccccn2)n1Cc1ccccc1)N1CCOCC1 | -10.6%
C=CCn1c(C)cc(-c2csc(NC(=O)CCc3nc4ccccc4c(=O)[nH]3)n2)c1C | -4.9%
OCCNC(=S)NCCc1ccccc1 | -0.7%
CCNC(=O)COC(=O)c1ccc(-n2nc(C)cc2C)cc1 | -9.5%
O=C(CN1CCOCC1)NN1CC(=O)N(c2ccc(Cl)cc2)CC1=O | 23.2%
COc1ccc(CCNC(=O)CSCc2ccc([N+](=O)[O-])cc2)cc1 | -18.7%
CNC(=O)c1csc(-c2ccc(Cl)cc2)n1 | -4.5%
Cc1ccc(/C=C2\SC(=S)N(CC3CCCO3)C2=O)o1 (stereo not drawn) | 8.6%
O=C(NCc1cccs1)c1ccc2c(c1)N(Cc1cccc(F)c1)C(=O)c1ccccc1S2 | 12.0%
CC1CCN(c2nc(CN3CCCCC3)nc3scc(-c4ccccc4)c23)CC1 | 4.0%
Cc1ccc(N(CC(=O)NCc2ccncc2)S(C)(=O)=O)cc1Cl | -7.5%
CCC(=O)N1c2ccc(S(=O)(=O)N3CCN(c4ccccc4Cl)CC3)cc2CC1C (stereo not drawn) | 2.2%&-19.1%
CSc1ccc(C(=O)C2CCCN(C(=O)CCn3cncn3)C2)cc1 (stereo not drawn) | -8.1%
Cc1cccc(N2CCN(c3nc4ccccc4c(=O)n3-c3ccc(Cl)cc3)CC2)c1C | 2.9%
O=C(CN1CCN(Cc2ccc(Cl)cc2)CC1)N/N=C/c1cccs1 | -6.2%
O=C(Nc1ccc2c(c1)OCO2)C(c1ccc(Cl)cc1)N1CCN(C(=O)c2ccco2)CC1 (stereo not drawn) | 8.8%
COc1ccc(CCn2c(C)cc(C(=O)CSc3nnc(N)s3)c2C)cc1 | -6.9%
COc1ccc(C2C(C(=O)N3CCN(c4ccccn4)CC3)CCC(=O)N2c2cc(OC)c(OC)c(OC)c2)cc1 (stereo not drawn) | 13.2%
O=C(OCC(=O)N1CCCC1=O)c1cccc([N+](=O)[O-])c1 | -9.5%
C=CCNCCCOc1ccc(C(C)(C)c2ccccc2)cc1 | -5.4%
COc1ccc(COc2cccnc2N)cc1 | -14.9%

Four compounds drawn at random from those above:
SMILES | VDR inhibitor
Cc1cccc(N2CCN(c3nc4ccccc4c(=O)n3-c3ccc(Cl)cc3)CC2)c1C | 2.9%
O=C(CN1CCN(Cc2ccc(Cl)cc2)CC1)N/N=C/c1cccs1 | -6.2%
CCC(=O)N1c2ccc(S(=O)(=O)N3CCN(c4ccccc4Cl)CC3)cc2CC1C (stereo not drawn) | 2.2%&-19.1%
COc1ccc(CCn2c(C)cc(C(=O)CSc3nnc(N)s3)c2C)cc1 | -6.9%

New compounds follow:
SMILES | VDR inhibitor
CC(C)(C)c1cc2cccnc2n1Cc1ccccc1 | -24.9%
COc1ccc(NC(=O)[C@@H](NC(=O)N2C[C@H]3C[C@@H](C2)c2cccc(=O)n2C3)C(C)C)cc1OC | -4.2%
CCCCNS(=O)(=O)c1ccc2nc(NC(=O)c3cccnc3)sc2c1 | -6.7%
Cc1ccc(Nc2cc(C)c3ccc(O)cc3n2)cc1C | -6.9%
CC(=O)Nc1cc2c(cc1Cl)-c1ccccc1C2O (stereo not drawn) | -0.3%
O=C(O)c1ccc(Nc2ccc3nonc3c2[N+](=O)[O-])cc1 | -10.0%
O=C(C1CCN(c2ncnc3c2nc2n3CCCCC2)CC1)N1CCN(c2ccc(Cl)cc2)CC1 | 4.9%
CCOC(=O)c1c(C)[nH]c(C(=O)OCC(=O)N(CC(C)C)C2CCS(=O)(=O)C2)c1C (stereo not drawn) | -7.1%
CCOC(=O)C1CCN(S(=O)(=O)c2cccc(-c3cn4cccc(C)c4n3)c2)CC1 | -0.4%
Cc1cccc(CNc2ncncc2-c2ccc(C(=O)N(C)C)cc2)c1 | -4.2%

Grouped by structure, the compounds so far containing an aryl methoxy group (13)
SMILES | VDR inhibitor
COc1ccc(-c2noc(CCC(=O)N3CCN(c4ccccc4F)CC3)n2)cc1 | -20.6%
CCOc1ccc(CNC(=O)c2ccc(NC(=O)N3CCCCc4ccccc43)cc2)cc1OC | 6.7%
CCC1Sc2ccccc2N(CC(=O)NCc2ccccc2OC)C1=O (stereo not drawn) | -7.0%
COc1ccc(OC)c(CCNC(=O)C(C)n2nc(C)c3c(C)n(-c4ccc(C)cc4)nc3c2=O)c1 (stereo not drawn) | 2.6%&6.6%
COc1ccc(C(=O)NCC(=O)OCC(=O)N2CCc3ccccc32)cc1 | -15.0%
COc1ccccc1C(=O)C1CCCN(C(=O)c2cccc(-n3cccn3)c2)C1 (stereo not drawn) | 2.9%
COc1ccc(NCC(=O)N2CCCC2)cc1Cl | -13.9%
CCN(CC)CCC(c1cc(OC)c(OC)c(OC)c1)c1c(OC)cc(OC)c2c(C)cc(=O)oc12 (stereo not drawn) | -8.3%&4.4%
COc1ccc(CCNC(=O)CSCc2ccc([N+](=O)[O-])cc2)cc1 | -18.7%
COc1ccc(CCn2c(C)cc(C(=O)CSc3nnc(N)s3)c2C)cc1 | -6.9%
COc1ccc(C2C(C(=O)N3CCN(c4ccccn4)CC3)CCC(=O)N2c2cc(OC)c(OC)c(OC)c2)cc1 (stereo not drawn) | 13.2%
COc1ccc(COc2cccnc2N)cc1 | -14.9%
COc1ccc(NC(=O)[C@@H](NC(=O)N2C[C@H]3C[C@@H](C2)c2cccc(=O)n2C3)C(C)C)cc1OC | -4.2%

The list is partial; count on the stated rates, not on these rows.
